RN4220 kill: kills Staphylococcus aureus RN4220; S. aureus RN4220 growth, OD600, 16 h; inhibition, % (no concentration beside the values); 0.33% of 330,000 active;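 active means z-score of -3 or lower and OD600 up to 0.18 on both plates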;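 further: plate controls were untreated cells for no effect and reference antibiotic for full effect; stock transfer was 100 nL into about 80 µL; one replicate is shown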
BJeLR lethal: BJeLR cell viability loss | BJeLR (HRASV12) viability, CellTiter-Glo ATP luminescence, 48 h; reference of the scale not given here | inhibition, % (concentration not given with the values) | 0.17% of 300,000 active;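 active means replicate mean above 50%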;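 further: 50 nL library stock added to about 25 µL; numbers are from one replicate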
ugtP null kill: compounds lethal to S. aureus RN4220 ugtP deletion mutant; OD600 growth, 16 h; some inactives read as strong as hits; growth inhibition, % (concentration not given with the values); 0.54% of 330,000 active;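 active means z-score under -3 and OD600 up to 0.15 on both plates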;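 further: plate controls were untreated wells for no effect and antibiotic for full effect; wells of about 80 µL received 100 nL stock; the first replicate is given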
PrP 5UTR inh: inhibition of PrP 5' UTR reporter expression | cell-based PrP 5' UTR mRNA reporter, plate reader | inhibition, % (no concentration beside the values) | 0.35% of 340,000 active;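 active means every replicate at 50% or more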;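 further: 0 = median of the neutral control wells; tested in H4 reporter cells; numbers are from one replicate; inactives centre near -14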
Autofluor counter: flagged as autofluorescent in microsphere protease counterscreen; compound autofluorescence counterscreen, microsphere flow cytometry; active compounds read high; fluorescence intensity (concentration not given with the values); 3.1% of 360,000 active; AID 624483;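 active means at least 3 SD above the mean of all compounds, about 16000 in these data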;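 further: 100 nL of 1 mM stock went into each well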
Mtb hypoxia rep: reduces hypoxia-regulated biosensor signal in M. tuberculosis; M. tuberculosis hypoxia-regulated fluorescent reporter, fluorescence; fluorescence inhibition, % (no concentration beside the values); 0.1% of 300,000 active;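 active means 35 to 45% if threefold the growth effect, above 45% if 1.5-fold the growth effect; inactive means the rest, general growth blockers included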;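 further: wells of about 50 µL received 100 nL stock; 0% = vehicle wells and 100% = reference inhibitor wells; whole bacteria with a GFP reporter of the hypoxia response; strong numbers were not always called active; many hits fall short of the cut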
Mtb hypoxia rep growth: also measured in Mtb hypoxia rep; calls as there; growth inhibition, %; measured here: M. tuberculosis growth (absorbance);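 0% = vehicle and 100% = reference antibiotic; read after six days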
* = called active by the depositor; / = not tested or not shown.

Below each compound: RN4220 kill	BJeLR lethal	ugtP null kill	PrP 5UTR inh	Autofluor counter	Mtb hypoxia rep	Mtb hypoxia rep growth
1	Cc1ccc(-c2ccc(C=Nc3ncn[nH]3)o2)cc1Cl
 : -8.2	/	-14.4	/	/	15.6	3.3
2	COC(=O)C1=C(C)N(Cc2cccnc2)C(=O)/C1=C\c1sccc1C
 : 3.1	-1.9	4.1	12.0	4818	17.4	-0.2
3	Cc1nc(SCC(=O)Nc2nc3ccccc3s2)c(C#N)c(C)c1C
 : 1.4	28.1	-7.2	92.8*	2360	-0.7	4.6
4	CC(=O)Nc1cccc2cc(O)ccc12
 : 2.3	/	0.0	-39.5	3676	11.0	12.1
5	Cc1ccc(S(=O)(=O)N2CCN(CC(=O)N3CCCC3)CC2)c(C)c1
 : 1.9	/	1.6	-29.4	3039	0.6	2.0
6	Cc1ccc2cc(COC(=O)c3ccncc3)c(=O)[nH]c2c1
 : 0.6	0.1	6.4	-2.0	4308	10.4	7.2
7	COc1ccc(NS(=O)(=O)c2ccc(S(=O)(=O)N3CCCC3)cc2)cc1
 : /	-0.3	/	-15.2	2502	/	/
8	CC(=O)Nc1cc2c(cc1NC(=O)c1cnccn1)OCCO2
 : -2.8	-9.5	-2.9	-5.4	3428	0.7	3.8
9	COc1cc(C(C)=O)ccc1OCC(=O)N1CCc2ccccc2C1
 : -0.9	-7.5	1.8	-13.5	3749	-3.3	3.1
10	CCNC(=O)CSC1=N/C(=C\c2ccc(O)c(OCC)c2)C(=O)N1c1ccc(OC(F)F)cc1
 : 4.4	4.4	0.3	-15.1	5192	-0.6	9.2
11	CCc1ccccc1S(=O)(=O)Cc1ccc(C(=O)NCC2CCCO2)o1 (configuration not stated)
 : 2.3	-2.7	-2.1	-2.7	16004	-4.1	6.0
12	COCCOC(=O)c1c(C)n(C)c2ccc(OC(=O)N3CCOCC3)cc12
 : 0.5	-1.3	-4.3	-6.7	9226	0.2	1.1
13	Cc1ccc(C(O)CN2C3=NCCCN3c3ccccc32)cc1 (configuration not stated)
 : 0.3	23.5	2.2	-27.2	6594	9.8	3.3
14	Cn1cccc1/C=N/NC(=O)c1sc2ccccc2c1Cl
 : /	3.4	/	-58.8	3349	/	/
15	CCOc1ccc(C2C(=C(O)c3ccc(OC)c(OC)c3)C(=O)C(=O)N2c2cc(C)on2)cc1OC (configuration not stated)
 : 2.6	/	-1.1	/	/	8.3	5.8
16	Cc1ccc2c(c1)C1C(CO2)C(c2ccccc2)[C@]2(C)C(=O)N(CC3CCCO3)CC(=O)N12 (some centres not stated)
 : 7.4	/	6.4	/	/	2.3	1.2
17	C=CCn1c(C)cc(C(=O)COC(=O)c2ccc3c(c2)NC(=O)CS3)c1C
 : -2.8	-2.9	1.2	-31.8	2389	2.9	-7.0
18	O=[N+]([O-])c1cc(Cl)c(O)c2ncccc12
 : 98.8*	5.6	98.3*	-17.4	4521	3.5	5.9
19	Cc1cc(C)nc(NS(=O)(=O)c2ccc(NC(=O)c3ccc(S(=O)(=O)N4CCOCC4)cc3)cc2)n1
 : 2.5	3.7	-3.3	-42.4	9704	11.2	13.1
20	CSc1nnc(C)c(=O)n1COC(=O)c1ccc(S(=O)(=O)N(C)C)cc1
 : 3.2	8.3	0.4	-10.8	2554	5.0	11.5
21	COC(=O)c1cnc2c(c(C)nn2C)c1OC
 : 0.2	1.6	2.6	-30.6	3588	2.9	11.9
22	O=C(CCCN1C(=O)c2cccc3cccc(c23)C1=O)NCc1ccco1
 : 6.5	-4.6	6.1	-8.8	4082	17.2	5.4
23	COc1ccc(C2NC3=C(CCC3)C3(C#N)C(OC)(OC)N=C(N)C23C#N)cc1 (configuration not stated)
 : 2.5	-9.5	-0.6	52.7*	4690	/	/
24	COc1ccccc1CNC(=O)COC(=O)c1ccc(C)c(S(=O)(=O)N2CCCCC2)c1
 : 4.1	4.1	0.2	-8.7	5411	-5.0	-0.5
25	O=C(NN=Cc1cccnc1)c1ccc(NC(=O)c2ccc(Cl)cc2)cc1
 : 0.7	/	1.4	/	/	4.4	15.2
26	O=C(NCc1ccccc1Cl)[C@@H]1CCCN1S(=O)(=O)c1ccc(Cl)cc1
 : 5.0	/	3.1	-15.9	2788	1.4	-0.8
27	COc1cccc(/C=N/c2sc(Cc3ccccc3)c(C)c2C(N)=O)c1O
 : /	8.6	/	-9.6	10275	/	/
28	Cc1nnc(NC(=O)c2ccc(S(=O)(=O)N(C)c3ccccc3)cc2)s1
 : 3.2	/	-0.8	-9.6	4494	-0.1	25.5
29	S=c1[nH]cnc2scc(-c3ccc(Br)cc3)c12
 : -1.9	-2.6	-1.1	-14.9	2589	-5.7	2.5
30	CC(Sc1cccc[n+]1[O-])C(=O)Nc1ccc(Oc2ccccc2)cc1 (configuration not stated)
 : -7.1	0.7	1.6	11.8	4447	5.4	5.9

Laid out differently: 4 of the compounds above.
19. Cc1cc(C)nc(NS(=O)(=O)c2ccc(NC(=O)c3ccc(S(=O)(=O)N4CCOCC4)cc3)cc2)n1
  RN4220 kill: 2.5	BJeLR lethal: 3.7	ugtP null kill: -3.3	PrP 5UTR inh: -42.4	Autofluor counter: 9704	Mtb hypoxia rep: 11.2	Mtb hypoxia rep growth: 13.1
20. CSc1nnc(C)c(=O)n1COC(=O)c1ccc(S(=O)(=O)N(C)C)cc1
  RN4220 kill: 3.2	BJeLR lethal: 8.3	ugtP null kill: 0.4	PrP 5UTR inh: -10.8	Autofluor counter: 2554	Mtb hypoxia rep: 5.0	Mtb hypoxia rep growth: 11.5
21. COC(=O)c1cnc2c(c(C)nn2C)c1OC
  RN4220 kill: 0.2	BJeLR lethal: 1.6	ugtP null kill: 2.6	PrP 5UTR inh: -30.6	Autofluor counter: 3588	Mtb hypoxia rep: 2.9	Mtb hypoxia rep growth: 11.9
22. O=C(CCCN1C(=O)c2cccc3cccc(c23)C1=O)NCc1ccco1
  RN4220 kill: 6.5	BJeLR lethal: -4.6	ugtP null kill: 6.1	PrP 5UTR inh: -8.8	Autofluor counter: 4082	Mtb hypoxia rep: 17.2	Mtb hypoxia rep growth: 5.4

Four compounds from above, sorted by length of the SMILES, lowest first.
Below each compound: RN4220 kill	BJeLR lethal	ugtP null kill	PrP 5UTR inh	Autofluor counter	Mtb hypoxia rep	Mtb hypoxia rep growth
1	Cc1ccc(-c2ccc(C=Nc3ncn[nH]3)o2)cc1Cl
 : -8.2	/	-14.4	/	/	15.6	3.3
9	COc1cc(C(C)=O)ccc1OCC(=O)N1CCc2ccccc2C1
 : -0.9	-7.5	1.8	-13.5	3749	-3.3	3.1
30	CC(Sc1cccc[n+]1[O-])C(=O)Nc1ccc(Oc2ccccc2)cc1 (configuration not stated)
 : -7.1	0.7	1.6	11.8	4447	5.4	5.9
20	CSc1nnc(C)c(=O)n1COC(=O)c1ccc(S(=O)(=O)N(C)C)cc1
 : 3.2	8.3	0.4	-10.8	2554	5.0	11.5

(listing goes on)
Below each compound: RN4220 kill	BJeLR lethal	ugtP null kill	PrP 5UTR inh	Autofluor counter	Mtb hypoxia rep	Mtb hypoxia rep growth
31	CCN(CC)c1ccc(C=NNS(=O)(=O)c2ccc(C)c([N+](=O)[O-])c2)cc1
 : -2.2	/	-3.5	/	/	-10.3	-7.6
32	CCCCNCCCCOc1ccccc1
 : 4.2	-8.4	-3.4	-32.3	13360	1.3	3.2
33	Cc1ccc(-n2nc(C(=O)O)c(O)cc2=O)cc1
 : 1.8	5.0	2.4	-20.2	2469	-3.2	3.7
34	CCCCNS(=O)(=O)c1ccc2nc(-c3cccnc3)cc(C(=O)NC(C)C)c2c1
 : 3.9	-3.6	9.6	-8.5	5487	8.5	11.3
35	CCCc1nc(NC(=O)c2ccccc2)nc(NC(=O)c2ccccc2)n1
 : 9.6	4.4	7.8	-16.9	4038	3.7	3.2
36	COc1c(F)c(F)c(C(=O)O)c(Nc2ccc(C)cc2C)c1F
 : 8.8	-2.9	0.7	-36.1	2237	1.5	-3.4
37	CCCC=C1CCCOC(C(=O)NCCN2CCOCC2)(C(F)(F)F)C1 (configuration not stated)
 : 4.8	/	7.7	/	/	3.9	3.1

Screens (PubChem)

Compounds were not picked by outcome; 4% or so of the library scored in one or more.
